2A StopGo: lowers the luciferase signal of an FMDV 2A StopGo reporter. 410,000 compounds, 1.2% hits. human cells with a luciferase reporter of 2A StopGo recoding; control for the full effect not named in the record. Potency, µM (series often up to 57.9 µM), without a hit: at the highest dose signal change, negative = less light; active = well fitted falling curve with a large enough effect; inconclusive = small, poorly fitted or top-dose-only effect; inactive = no such curve, though single readings can be large or run the other way; tested in HEK293T cells; note: % is set by controls: 0 for no effect and ±100 for the full control effect; nearly all actives have a fitted effect of over 45% in size; luciferase light after 4 h
Marburg entry inh: inhibitors of Marburg virus binding or cell entry. Marburg virus pseudotyped entry inhibition, cell reporter; control for the full effect not named in the record; about a third of the inactives were read at about 46 µM. Potency, µM (highest dose often 37.8 µM), for inactives: at the highest dose activity change, negative = inhibition, most hits filed as inhibitors. 300,000 compounds, 1.8% hits. AID 540276; active = well fitted inhibition curve with a large enough effect; inconclusive = small, poorly fitted or top-dose-only effect, or effect the other way; inactive = flat fitted curve, though single readings scatter; tested in HEK293 cells; about a fifth of its hits are not listed in these tables; note: % is set by controls: 0 for no effect and ±100 for the full control effect; luciferase read-out
RE007 growth inh: less growth of the S. pombe RE007 Vpr strain; Potency, µM (doses to about 92.2 µM), for the others: at the highest dose activity change, negative = less growth; S. pombe RE007 Vpr strain, BacTiter-Glo ATP luminescence, 24 h; control for the full effect not named in the record; 360,000 compounds, 0.21% hits; active = well fitted falling curve with a large enough effect; inconclusive = small, poorly fitted or top-dose-only effect; inactive = no such curve, though single readings can be large or run the other way;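 note: % is set by controls: 0 for no effect and ±100 for the full control effect; nearly all actives have a fitted effect of over 50% in size; the assay follows cell death caused by Vpr and the record does not say whether a fall means rescue or toxicity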
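Fission yeast strain RE007, carrying one chromosomally integrated HIV-1 vpr copy, was seeded at OD 0.01 in PMG+AL medium with 23 nL pinned compound. After 24 h at 30 °C and 99% humidity, viability was read by BacTiter-Glo luminescence.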
SARS PLP yeast: blocks SARS-CoV papain-like protease in a yeast assay. S. cerevisiae expressing SARS-CoV PLpro, growth rescue; control for the full effect not named in the record. Potency, µM (titrated, usually from 32.9 µM), inactives show top-dose activity, positive = growth rescue. 330,000 compounds, 0.19% hits. AID 485353; active means well fitted rising curve with a large enough effect; inconclusive means small, poorly fitted or top-dose-only effect; inactive means no such curve, though single readings can be large or run the other way; note: 0% is about no effect; nearly all actives have a fitted effect of over 55% in size; growth read by luminescence after 48 h
Lassa entry inh: Lassa virus entry inhibition; Lassa virus pseudotype entry inhibition, cell reporter; control for the full effect not named in the record; Potency, µM (titrated, usually from 37.9 µM), for the others: at the highest dose activity change, negative = inhibition, hits mostly inhibitors; 300,000 compounds, 1.2% hits; AID 540256; active means well fitted inhibition curve with a large enough effect; inconclusive means small, poorly fitted or top-dose-only effect, or effect the other way; inactive means flat fitted curve, though single readings scatter; tested in HEK293 cells; note: % is set by controls: 0 for no effect and ±100 for the full control effect; nearly all actives have a fitted effect of over 50% in size; luciferase read-out
Cruzain inh Det: cruzain (T. cruzi) inhibition with detergent; Potency, µM, without a hit: max response, negative = inhibition, hits mostly inhibitors; purified cruzain, Z-FR-AMC fluorescence, 0.01% Triton; 200,000 compounds, 0.43% hits; AID 1478;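 note: plate controls were neutral wells for no effect and buffer without enzyme for full effect; nearly all actives have a fitted effect of over 40% in size; top concentration of the series not given in the record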
Target sequence (P25779 123-467 limits assumed): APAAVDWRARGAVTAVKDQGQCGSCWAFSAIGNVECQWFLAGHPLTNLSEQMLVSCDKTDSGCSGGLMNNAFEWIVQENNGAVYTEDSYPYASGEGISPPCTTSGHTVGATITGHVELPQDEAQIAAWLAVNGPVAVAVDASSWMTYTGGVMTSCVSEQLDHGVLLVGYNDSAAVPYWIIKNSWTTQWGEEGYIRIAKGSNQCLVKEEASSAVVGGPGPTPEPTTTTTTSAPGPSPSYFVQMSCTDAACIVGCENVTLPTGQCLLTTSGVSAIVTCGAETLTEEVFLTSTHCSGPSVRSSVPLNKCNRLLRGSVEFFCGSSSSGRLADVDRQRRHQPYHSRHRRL
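Enzyme 1.5 nM, Z-FR-AMC 2 uM, NaOAc 100 mM pH 5.5, DTT 5 mM, Triton X-100 0.01%; 15 min RT compound preincubation; kinetic ex360/em450, 60 s delta.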
Cruzain noTriton: cruzain (T. cruzi) inhibition without detergent; Potency, µM, for inactives: max response, negative = inhibition, hits mostly inhibitors; 200,000 compounds, 2.3% hits; purified cruzain, Z-FR-AMC fluorescence, no detergent;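 note: plate controls were enzyme without inhibitor for no effect and buffer without enzyme for full effect; nearly all actives have a fitted effect of over 40% in size; top concentration of the series not given in the record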
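Detergent-free condition (0.00005% Triton X-100) in acetate buffer pH 5.5 with DTT. 1.5 nM enzyme and compound were pre-mixed 15 min, then 2 uM Z-FR-AMC substrate added; reaction progress from fluorescence change between first and third reads (60 s).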
NS1 function inh: inhibitors of influenza NS1 protein function. S. cerevisiae slowed by influenza A NS1, growth recovery by OD600. Potency, µM (series often up to 46.1 µM), inactives show at the top dose activity, positive = more growth. 270,000 compounds, 0.4% hits; active means well fitted rising curve with a large enough effect; inconclusive means small, poorly fitted or top-dose-only effect; inactive means no such curve, though single readings can be large or run the other way; note: nearly all actives have a fitted effect of over 50% in size
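Read-out: OD600 growth recovery of NS1-expressing budding yeast. Cells grown overnight at 30C in -URA glucose medium, washed, resuspended and diluted 1:100 in 2% galactose assay medium, pH 6.0. Same strain lacking NS1 served as positive control.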
* marks the source's active call; other numbers are inactive results; ? = inconclusive; . = no result given; [ ] = dose if it differs, or a comment. Unless noted, calls come from the whole dose curve; as a rule, active = well fitted curve in the direction sought with a large enough effect; inconclusive = small, poorly fitted or top-dose-only effect, or another doubt; inactive = no such curve, though single readings can be large; an effect the other way counts as inactive or inconclusive. Potency is the fitted concentration of half-maximal effect.

SMILES	2A StopGo	Marburg entry inh	RE007 growth inh	SARS PLP yeast	Lassa entry inh	Cruzain inh Det	Cruzain noTriton	NS1 function inh
Cc1cc(NC(=O)Cn2c(=O)oc3cc(S(=O)(=O)N4CCCC4)ccc32)ccc1Br	-22%	.	.	.	-22%[46.1 µM]	-1.5%	-2%	.
Cc1c(C(=O)O)oc2c1C(O)CCC2 (stereo not given)	-12%	?	5%	-1%	3%	4.1%	-2%	5%
COc1cc(OC)cc(C(=O)Nc2cc(-c3nc4ccccc4s3)ccc2OC)c1	-6%	3%[46.1 µM]	.	.	8%[46.1 µM]	0.1%	7%	.
O=C(NCc1cccnc1)C(=O)NC1CCCCC1	12%	.	1%	0%	.	.	.	-3%
Cc1ccc(C2CC(C(F)(F)F)n3nc(C(=O)NCc4ccco4)cc3N2)cc1 (stereo not given)	-14%	?	-10%	-3%	0%	-0.3%	12%	-5%
O=C(N/N=C/c1sc(N2CCOCC2)nc1-c1ccccc1)c1ccccc1Cl	-16%	9%[46.1 µM]	7%	0%	?	.	.	-1%
CCc1ccc(S(=O)(=O)c2nnn3c2nc(N(C)Cc2ccccc2)c2cc(Cl)ccc23)cc1	-6%	-11%[46.1 µM]	.	.	.	-0.7%	8%	.
COc1ccc(CNC(=O)Cc2ccc(NC(=O)N3CCCCc4ccccc43)cc2)cc1	4%	.	.	.	?	-1.2%	13%	.
NNC(=O)CN1CCN(c2ncc(C(F)(F)F)cc2Cl)CC1	-12%	25%[46.1 µM]	-13%	1%	-1%	.	.	.
COCC(=O)Nc1ccccc1C#N	-14%	-8%	-12%	-3%	0%	6.5%	-3%	-1%
CC1=Nc2ccccc2N=C(NC(=O)c2ccccc2)C1c1ccc(Cl)cc1 (stereo not given)	-17%	?	-13%	-2%	?	.	.	3%
O=C(Nc1ccc(F)c(F)c1)c1cc(S(=O)(=O)N2CCN(c3ccccn3)CC2)ccc1F	.	?	-4%	-3%	?	-4.3%	3%	2%
COc1ccccc1Sc1nc(-c2ccccn2)ncc1OC	-11%	?	-9%	2%	?	.	.	.
CCN(CC)C(=O)CSc1nnc([C@@H](N)Cc2ccccc2)o1	-17%	-23%	30%	-4%	-3%	25µM*	25µM*	?
CN1CCN(C2Cc3ccccc3Sc3cc(C(F)(F)F)ccc32)CC1 (stereo not given)	12%	?	8%	.	?	.	.	.
CC(=O)N1N=C(c2c(O)n(C)c(=O)n(C)c2=O)CC1c1ccccc1 (stereo not given)	-2%	-3%	2%	1%	-17%	.	.	3%
CCCCCCCCCCCC(=O)c1c(O)cccc1O	-25%	.	-3%	-6%	.	.	.	-3%
COc1ccc2cc(-c3[nH]ncc3CNCCn3nc(C)cc3C)ccc2c1	?	.	-6%	0%	.	.	.	2%
O=c1[nH]c(=O)n(Cc2ccco2)c(O)c1/C=N/N1CCCCC1	-22%	?	1%	15%	-20%	-3.6%	-1%	-7%
COc1ccccc1NC(=O)c1cc(S(=O)(=O)NCCC2=CCCCC2)ccc1F	13%	.	.	.	-5%[46.1 µM]	0.1%	-7%	.
CCOc1ccc(NC(=O)CN(Cc2ccccc2)S(C)(=O)=O)cc1	-8%	?	8%	-12%	9%	-0.5%	-6%	1%
Cc1ccc(-c2[nH]c(=S)[nH]c(=O)c2C#N)cc1	-21%	.	-4%	2%	.	.	.	2%
COc1cccc(-n2c(=O)c3c(C)c(C)sc3n(CC(=O)NCc3ccc(C)cc3)c2=O)c1	-6%	-10%[46.1 µM]	.	.	3%[46.1 µM]	-2.4%	11%	.
O=C(NCCc1ccccc1)C1CCN(S(=O)(=O)N2CCC3(CC2)OCCO3)CC1	-9%	4%	-7%	3%	-5%	-0.9%	-4%	-4%
CC1CCC(NC(=O)Cn2c(=O)oc3ccccc32)CC1 (stereo not given)	12%	.	27%	-3%	.	.	.	13%
C/C(=N\NC(=O)CNc1cccc(Cl)c1C)C1CC1	10%	-1%[46.1 µM]	-8%	0%	10%[46.1 µM]	.	.	6%
O=C(N/N=C/c1ccc(Br)o1)c1cccnc1	0%	-14%	-11%	-1%	-7%	-9.3%	-7%	8%
COc1ccc(N2CCN(CCCNC(=O)C3COc4ccc(OC)cc4C3)CC2)cc1 (stereo not given)	-26%	.	.	.	-25%[46.1 µM]	-0.4%	-3%	.
O=C1CSC(c2ccccn2)N1Cc1cn2ccccc2n1 (stereo not given)	-9%	-4%	-5%	11%	15%	3.8%	-6%	?
OCCC1CN(Cc2cccc3c2OCO3)CCN1Cc1ccccc1 (stereo not given)	-9%	?	5%	0%	4%	.	.	2%
CN(C)CCCN(C(=O)c1cc(-c2cccs2)nc2ccccc12)c1nc2ccc(F)cc2s1	-17%	?	11%	-15%	6.3µM*	.	.	-19%
CS(=O)(=O)c1ccc2nc(NC(=O)c3ccc(N4CCCC4=O)cc3)sc2c1	-3%	-12%[46.1 µM]	-8%	-1%	14%	.	.	3%
O=C(O)C1CCCCC1C(=O)Nc1ccc2c(c1)OCO2 (stereo not given)	11%	8%[46.1 µM]	-21%	0%	15%	.	.	8%
CCOC(=O)c1sc(Nc2nc(C)cc(C)n2)nc1C	-14%	.	-5%	-2%	.	.	.	-1%
N/C(=N\OC(=O)c1ccc(Cl)cc1)c1ccn[nH]1	-1%	.	?	-5%	.	.	.	-18%
COc1ccc(NC(=O)CCS(=O)(=O)c2ccccc2Cl)cc1S(=O)(=O)Nc1ccc(Cl)cc1	28%	.	-21%	10%	.	.	.	-2%
O=C(Cn1c(=O)oc2cc(S(=O)(=O)N3CCCCCC3)ccc21)NC1CCCCCCC1	39%[activator]	-2%	-2%	1%	.	-9.1%	20µM*	-59%
CC(=O)c1ccc(N2CCN(CC(O)c3ccccc3)CC2)cc1 (stereo not given)	-22%	18%[46.1 µM]	?	-3%	17%	.	.	7%
CCN(C(=O)c1noc2c1COc1ccc(C)cc1-2)c1cccc(C)c1	-7%	.	.	.	6%[46.1 µM]	1.2%	-7%	.
CCOc1ccc(NC(=O)CN(C)C(=O)c2cc(S(=O)(=O)N(C)C)ccc2N2CCCC2)cc1OCC	-18%	?	13%	3%	?	.	.	.
COc1ccc(-c2noc(CSc3nnc(C)n3-c3ccc(C)cc3)n2)cc1	-22%	-4%[46.1 µM]	.	.	?	-4.4%	0%	.
COc1ccc(CNCC(O)(c2ccccc2)c2ccc(F)cc2)cc1 (stereo not given)	-4%	11µM*	-9%	-1%	14%[46.1 µM]	.	.	-2%
CCCCCN(C(=O)CCC(=O)OCC(=O)c1ccc(F)c(F)c1)c1c(N)n(CCCC)c(=O)[nH]c1=O	-4%	28%	-2%	3%	-2%	.	.	.
Cc1cccc(CSc2nnc(C)c(=O)n2N)c1	-10%	15%	5%	3%	-1%	2.7%	4%	8%
Cc1ccc(NC(=S)NC(NC(=O)c2ccccc2)C(Cl)(Cl)Cl)c(C)c1 (stereo not given)	?	?	-10%	-5%	?	-9.4%	6%	0%
Cc1nn(CC(=O)Nc2cccc(C(F)(F)F)c2)c(=O)c2cccn12	-4%	0%[46.1 µM]	-1%	-2%	-16%[46.1 µM]	.	.	10%
CCN1CCN(S(=O)(=O)c2ccc(Cl)c(C(=O)N(C)Cc3ccco3)c2)CC1	-21%	2%	-13%	-6%	-28%	.	.	.
O=C(NCCCN1CCOCC1)c1ccc(Cl)c([N+](=O)[O-])c1	-5%	-4%[46.1 µM]	-1%	.	11%	.	.	.
O=C(NCC(=O)N1CCOCC1)c1ccc(Br)o1	42%[activator]	17%	35%	3%	-19%	.	.	.
Nc1ccc(N2CCN(CCCCN3C(=O)C4CCCN4C3=O)CC2)cc1 (stereo not given)	-20%	3.2µM*	-9%	1%	14%	-10%	-2%	18%
COC1C(O)C(C)OC(OC2C(Oc3cccc4c(O)c5c(=O)oc6ccc(C)c7c(=O)oc(c34)c5c67)OC(C)C(O)C2O)C1O (stereo not given)	?	?	?	.	?	.	.	.
CCN(CC)C(=O)C1CCN(Cc2ccc(OCc3ccccc3)cc2)CC1	-8%	.	-5%	2%	.	.	.	-29%
Cc1ccccc1C(=O)NC1(C(F)(F)F)N=C(c2ccccc2)N(Cc2ccccc2)C1=O (stereo not given)	-14%	?	.	.	-17%[46.1 µM]	-5.7%	-3%	.
C/C(=N\NC(=O)Cc1cccn1C)c1ccco1	-13%	9%[46.1 µM]	1%	3%	11%[46.1 µM]	.	.	4%
Cc1c(C(=O)OCC(=O)N2CC(C)CC(C)C2)oc2ccccc12 (stereo not given)	14%	?	6%	-3%	-16%	.	.	.
CCOC(=O)Cc1csc(NC(=O)/C=C/c2ccco2)n1	2%	.	11%	-2%	.	.	.	-40%
CN(C(=O)CC1C(=O)NCCN1Cc1ccccc1F)C1CCOCC1 (stereo not given)	?	8%	-15%	3%	22%	.	.	4%
O=C(/C=C/c1ccc(F)cc1)Nc1ccc(S(=O)(=O)N2CCOCC2)cc1	-22%	-17%[46.1 µM]	3%	2%	7%[46.1 µM]	.	.	-6%
Cc1ccc(SC(C)c2nc(-c3ccncc3)no2)cc1 (stereo not given)	?	0%	-6%	-10%	-11%	-3.5%	-2%	-162%
CCOc1ccc(-n2c(/C=C/c3ccccc3)nc3ccccc3c2=O)cc1	-13%	.	.	.	0%[46.1 µM]	3.1%	6%	.

Further results follow.
SMILES	2A StopGo	Marburg entry inh	RE007 growth inh	SARS PLP yeast	Lassa entry inh	Cruzain inh Det	Cruzain noTriton	NS1 function inh
NC(=O)c1nsc(C(=O)N(c2cccc(O)c2)C(C(=O)NC2CCCC2)c2ccc(Cl)cc2)c1N (stereo not given)	-29%	1%[46.1 µM]	-6%	16%	-15%	.	.	17%
COC(=O)C1C(O)=C(C=NC2CCCCC2)C(=O)CC1(C)C (stereo not given)	6%	13%	4%	4%	3%	-0.1%	4%	5%
COC(=O)c1cc2sc(C)cc2n1Cc1ccc(Br)cc1F	6%	7%[46.1 µM]	.	.	.	-5.6%	?	.
CCN=C1NN=C(c2cc(C)n(CCc3ccccc3)c2C)CS1	-7%	?	-4%	-7%	?	.	.	.
COC(C[C@H](O)C[C@H](O)[C@H](C)OCc1ccccc1)OC	-15%	.	-1%	-1%	.	.	.	0%
COCCCNC(=O)C1CCN(Cc2cc3ccccc3n2Cc2ccccc2C)CC1	-16%	.	.	.	-17%[46.1 µM]	0.7%	3%	.
CCN(CC)C(=O)c1ccc(-c2nnc(Nc3cccc(O)c3)c3ccccc23)cc1	?	.	2%	-3%	.	.	.	-22%

Screening results from PubChem.
